Screens as filed in PubChem.
OX1R antag: OX1R (HCRTR1) antagonists, primary screen, fluorescence, CHO/OX1R cells, Fluo-8 calcium, orexin A | AID 434989, 2010 | hit rate 0.43% among 330,000 | Fluo-8 calcium fluorescence | Orexin/Hypocretin receptor type 1 (Homo sapiens), O43613 | inhibition, % at 5 µM;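 active = inhibition above its plate's threshold, mean inhibition of all tested compounds on the plate plus 3 SD, cut at about 37% in these data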;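 note: 0% = orexin A challenge wells and 100% = SB-334867-A antagonist wells; not every result past the cut was called active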
Target sequence (O43613 whole entry, looked up): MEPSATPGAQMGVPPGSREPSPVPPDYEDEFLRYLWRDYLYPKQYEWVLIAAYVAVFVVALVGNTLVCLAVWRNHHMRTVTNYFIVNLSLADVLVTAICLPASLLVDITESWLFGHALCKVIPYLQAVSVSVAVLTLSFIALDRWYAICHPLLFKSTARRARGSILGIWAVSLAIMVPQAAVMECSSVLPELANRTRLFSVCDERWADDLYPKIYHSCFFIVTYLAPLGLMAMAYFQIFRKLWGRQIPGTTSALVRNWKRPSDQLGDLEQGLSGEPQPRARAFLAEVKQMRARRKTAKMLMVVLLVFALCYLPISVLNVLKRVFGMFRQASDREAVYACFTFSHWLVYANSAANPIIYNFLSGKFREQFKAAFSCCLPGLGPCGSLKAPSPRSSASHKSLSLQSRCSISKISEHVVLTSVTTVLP
* = called active by the depositor.

OX1R antag	structure
-7	CN(C)c1ccc(CNC23CN4CN(CN(C4)C2)C3)cc1
-3	CC1CCc2c(C(=O)NCC3CCCO3)csc2C1 (configuration not stated)
14	Fc1ccc(Cn2nnnc2C(c2cccs2)N2CCCCCC2)cc1 (configuration not stated)
-33	N#C/C(=C\c1c(N2CCCCCC2)nc2ccccn2c1=O)C(=O)NCc1ccco1
2	COc1cccc(C2CC(c3ccc(Cl)cc3)Nc3nc(N)nn32)c1 (configuration not stated)
-19	Cc1ccc(S(=O)c2ccc(C)cc2)cc1
-18	Cc1c(/C=N/NC(=O)c2cccs2)c2ccccc2n1Cc1ccccc1Cl
-15	O=C(CO/N=C/c1ccc(OC(F)F)cc1)NC1CCCCCC1

Continued.
OX1R antag	structure
-1	FC(F)(F)c1ccc(Cl)c(NC(=S)NC2CC2)c1
-3	CCOC(=O)CCCNC(=O)CN1C(=O)NC2(CCCCCC2)C1=O
-6	C=C(C)C1Cc2cc3ccc(=O)oc3cc2O1 (configuration not stated)
-17	COc1ccc(OC)c(NC2=C(Cl)C(=O)N(Cc3ccccc3)C2=O)c1
-16	COc1ccc(/C=C(\NC(=O)c2ccccc2)C(=O)NCCN2CCOCC2)cc1
-17	Nc1c(C(=O)NCCc2ccccc2)sc2nc(N3CCOCC3)c3c(c12)CCCC3
-4	COc1ccc(C2/C(=C(/O)c3ccccc3)C(=O)C(=O)N2C)cc1 (configuration not stated)
-16	O=C(NCc1nnc(SCC(=O)N2CCN(c3ccccc3)CC2)o1)c1ccco1

Additional results:
OX1R antag	structure
-7	COC(=O)C1CSC2c3ccccc3C(=O)N12 (configuration not stated)
-5	COc1ccc(S(=O)(=O)NC(C)C(=O)Nc2ccc3c(c2)OCCO3)cc1OC (configuration not stated)
-22	CCOC(=O)C1=C(CSc2nncn2C)NC(=O)NC1c1cc(OCC)ccc1OCC (configuration not stated)
-17	O=S1(=O)c2cccc3cccc(c23)N1CCBr
-19	O=C(CN1C(=O)CSC1=O)c1ccccc1
-32	Cc1nc2c3ccccc3nc(NNC(=O)CCC(=O)N3CCN(c4ccc(F)cc4)CC3)n2n1
-9	CC(=O)N(C(C)=O)c1nc2nc(C)cc(C)n2n1
8	COc1cccc(N2C(=O)CC(c3c[nH]c4ccccc34)C2=O)c1 (configuration not stated)

Single values from above.
OX1R antag result of Nc1c(C(=O)NCCc2ccccc2)sc2nc(N3CCOCC3)c3c(c12)CCCC3 → -17
OX1R antag result of CC(=O)N(C(C)=O)c1nc2nc(C)cc(C)n2n1 → -9

Later entries.
OX1R antag	structure
-4	CC(C)CNC(=O)c1coc(=O)c(Br)c1
-26	CC1=C(C(=O)OCC2CCCO2)C(c2ccsc2)C2=C(CC(C)(C)CC2=O)N1 (configuration not stated)
-7	CCOc1ccc(CN2CCNC(=O)C2CC(=O)N(C)CC2CCOCC2)cc1 (configuration not stated)
-18	COc1ccc(-c2[nH]ncc2CN2CCC(N3CCSCC3)CC2)c(F)c1
-28	CCOc1ccc(C(=O)NCC(=O)N2CC=C(c3ccccc3)CC2)cc1OCC
-18	CCOC(=O)CCSc1nc2c(c(C(F)(F)F)c1C#N)CCC2
3	CCn1c(=O)c2sccc2n2c(CCCC(=O)NCc3cccnc3)nnc12
-18	COCCn1c(C)cc(C(=O)COC(=O)c2cccc(O)c2)c1C

The results go on.
OX1R antag	structure
-28	CC(=O)c1c(C)[nH]c(C(=O)Nc2cccc(S(=O)(=O)N(C)C)c2)c1C
-2	CCc1ccccc1NC(=O)CSc1nnc(-c2cc(C)[nH]n2)n1N
-8	Cc1cccc(OCc2nc3ccccc3c(=O)n2N)c1
-14	Cc1ccc(NC(=O)CCN2C(=O)c3ccccc3S2(=O)=O)cc1F
-14	COCC(=O)N(Cc1ccccc1)c1ccccn1
-8	CC(OC(=O)c1cc(O)c2ccccc2c1O)C(=O)Nc1ccc(C(N)=O)cc1 (configuration not stated)
-13	Cc1cc(Br)ccc1NC(=O)CNC(=O)CN(C)Cc1nc2ccccc2c(=O)[nH]1
-4	O=C(NCCc1nc2ccccc2[nH]1)C1CCC(=O)N(CCc2cccc(F)c2)C1 (configuration not stated)

Further structures.
OX1R antag	structure
-12	COc1ccccc1C1CC(=O)Nc2cc3c(cc21)OCCO3 (configuration not stated)
-13	CC(=O)c1ccc(-n2ccnc2)cc1
-8	Cc1ccc(S(=O)(=O)N2CCOC23CCN(S(=O)(=O)c2cccs2)CC3)cc1
-13	COC(=O)Nc1ccc(S(=O)(=O)N2CCCC(C(=O)N3CC(C)OC(C)C3)C2)cc1 (configuration not stated)
-25	C=CCNc1nc(-c2ccccn2)nnc1-c1ccccc1
-24	Cc1nc(SCC(=O)Nc2ccc(C)c(F)c2)c2oc3ccccc3c2n1
-14	CCC(=O)Nc1ccc(/C(C)=N\NC(=O)c2ccc(OC)cc2)cc1
-6	O=C(Nc1ccccc1O)c1cccc(S(=O)(=O)N2CCOCC2)c1

Next entries follow:
OX1R antag	structure
-22	Cc1c(Br)ccc(NC(=O)COc2ccccc2C(N)=O)c1C
-4	CC(C)NCC(O)COCCOc1ccc(Cl)cc1 (configuration not stated)
4	Cc1cc(C#N)c2ccccc2n1
-15	COc1ccc(CNC(=O)C2CSCCS2)cc1 (configuration not stated)
0	Cc1ccc(C(=O)OCC(=O)Nc2ccc3[nH]c(=O)[nH]c3c2)cc1[N+](=O)[O-]
0	OCc1nc2ccccc2n1CCc1ccccc1
-35	N#Cc1ccccc1NC(=O)CNc1ccccc1N1CCCCC1
-6	CCC(CC)NC(=O)C1CCN(S(=O)(=O)c2cccs2)CC1

Next section
OX1R antag	structure
-13	CN(C)CCN(C(=O)CCc1ccccc1)c1nc2c(F)cc(F)cc2s1
-34	O=C(CNC(=O)c1cc2c(s1)CCC2)Nc1ccccc1Br
-16	O=C(Nc1cc(Cl)ccc1-n1cncn1)c1ccc(F)c(S(=O)(=O)N2CCOCC2)c1
-8	CC(C)c1ccc2oc(-c3ccc(N)cc3)nc2c1
-8	CN1/C(=C\C=N\O)C(C)(C)c2ccccc21
-17	CC(=O)Nc1ccn(Cc2c(F)cccc2Cl)n1
-5	CCN1CCN(S(=O)(=O)c2ccc(Cl)c(C(=O)NC(C)(C)C)c2)CC1
0	Cc1occc1-c1nnc(SCC(=O)NC2CCCC2)n1C

Six compounds out of the list, sorted by SMILES length, ascending.
OX1R antag	structure
-17	CC(=O)Nc1ccn(Cc2c(F)cccc2Cl)n1
-8	CN1/C(=C\C=N\O)C(C)(C)c2ccccc21
-34	O=C(CNC(=O)c1cc2c(s1)CCC2)Nc1ccccc1Br
-6	CCC(CC)NC(=O)C1CCN(S(=O)(=O)c2cccs2)CC1
-13	CN(C)CCN(C(=O)CCc1ccccc1)c1nc2c(F)cc(F)cc2s1
-16	O=C(Nc1cc(Cl)ccc1-n1cncn1)c1ccc(F)c(S(=O)(=O)N2CCOCC2)c1

Additional results
OX1R antag	structure
-11	Cc1ccc(S(=O)(=O)[N-]c2nc3ccccc3nc2-[n+]2cc(C)cc(C)c2)cc1
-1	COC(=O)c1ccc(NC(=O)CCn2cccc2)cc1
-12	COc1ccc(NC(=O)c2cccc(N3C(=O)c4ccc(C(=O)Nc5ccc(OC)c(O)c5)cc4C3=O)c2)cc1O
-6	O=C(NC1CCCCC1)c1ccc(CNc2c(N3CCOCC3)c(=O)c2=O)cc1
-8	COc1cc2c3c(c1OC)C1(C=CC(=O)C=C1)CC3N(C(=O)CCC(=O)O)CC2 (configuration not stated)
-24	CCCNC(=O)CS(=O)(=O)Cc1nc(-c2ccccc2C)oc1C
-14	CCC(=O)NC(=S)Nc1ccccc1C(=O)OC
-17	Cc1ccc(C(=O)Nc2ccc(O)c(C(=O)O)c2)o1

Next section
OX1R antag	structure
-22	COc1cccc(C(=O)NCC(c2ccc3c(c2)OCO3)N2CCN(c3ccc(F)cc3)CC2)c1 (configuration not stated)
-9	OCCNCCNCc1ccc(-c2ccccc2)cc1
-8	Cc1cc(=O)[nH]c(N/N=C/CCc2ccccc2)n1
-25	COc1cc([C@H]2[C@@H]3CCCC[C@]3(O)CCN2CC(=O)Nc2ccc(C)cc2C)ccc1O
-33	O=C(Cc1ccc(F)cc1)Nc1nnc(SCC(=O)N2CCCCC2)s1
4	COc1ccc(C(=O)Nc2ccccc2-c2ccccc2)cc1Cl
-20	COc1ccc(-c2ccc(-c3nnc(-c4cc(OC)ccc4OC)o3)cc2)cc1
-30	COc1ccccc1CCC(=O)N(CCC1=CCCCC1)c1c(N)n(Cc2ccccc2)c(=O)[nH]c1=O

The list continues:
OX1R antag	structure
-29	Cn1c(N)c(C(=O)COC(=O)c2cc(C(F)(F)F)nc3ccccc23)c(=O)n(Cc2ccccc2)c1=O
-16	CC1CCc2cc(F)ccc2N1C(=O)C1(C)CC1(Cl)Cl (configuration not stated)
-12	Cc1ccc(-c2cnn(-c3ccccc3)c2N)cc1
-26	COC(=O)CSc1nc(N)c(C#N)c(C(C)C)c1C#N
-16	Cc1ccc(N2CC(C(=O)Nc3ccncc3)CC2=O)cc1 (configuration not stated)
6	Cc1cc(NC(=O)/C=C/c2ccc(Br)cc2)no1
-17	COC(=O)c1ccc(NC(=O)C2C3C=CC(C3)C2C(=O)O)cc1 (configuration not stated)
-3	Cc1c(N(C)C(=O)C2CCCN2S(=O)(=O)c2ccccc2)c(=O)n(-c2ccccc2)n1C (configuration not stated)

The listing continues:
OX1R antag	structure
-20	COc1ccc(-c2csc(C3=C(O)CN(Cc4ccc(Cl)cc4)C3=N)n2)cc1OC
1	COc1cccc(CSc2nnc(-c3ccco3)n2C)c1
-19	CC1CCN(Cc2nc3c(c(=O)n(C)c(=O)n3C)n2CCc2ccccc2)CC1
-28	Cc1ccc(N2CC(C(=O)NC(C)CCc3ccccc3)CC2=O)cc1 (configuration not stated)
-37	O=C(c1cc(-c2ccncc2)nc2ccccc12)N1CCN(c2ccccn2)CC1
-9	Cn1c(NCc2cccnc2)nc2c1c(=O)n(Cc1ccccc1F)c(=O)n2C
-14	O=c1[nH]c(CN2CCN(c3ccccc3)CC2)nc2ccccc12
-18	Cc1cc(C(=O)NC(C)CCC(C)C)c2ccccc2n1 (configuration not stated)

Six of the entries above in order of the OX1R antag value, largest number first.
OX1R antag	structure
1	COc1cccc(CSc2nnc(-c3ccco3)n2C)c1
-14	O=c1[nH]c(CN2CCN(c3ccccc3)CC2)nc2ccccc12
-18	Cc1cc(C(=O)NC(C)CCC(C)C)c2ccccc2n1 (configuration not stated)
-19	CC1CCN(Cc2nc3c(c(=O)n(C)c(=O)n3C)n2CCc2ccccc2)CC1
-20	COc1ccc(-c2csc(C3=C(O)CN(Cc4ccc(Cl)cc4)C3=N)n2)cc1OC
-28	Cc1ccc(N2CC(C(=O)NC(C)CCc3ccccc3)CC2=O)cc1 (configuration not stated)

New compounds follow.
OX1R antag	structure
-36	COCCn1c(SCc2nc3ccccc3c(=O)[nH]2)nc2ccccc2c1=O
-40	Cc1ccc(C2Oc3ccccc3C3=C2C(c2cccs2)n2ncnc2N3)cc1 (configuration not stated)
-16	Cc1nnc(NC(=O)CSc2n[nH]c(-c3ccccc3)n2)s1
-5	CSc1nc(N2CCN(c3ccccc3)CC2)cc(N2CCN(c3ccccc3)CC2)n1
-10	CCOC(=O)Cn1c(=N)n(Cc2ccccc2)c2ccccc21
-46	CCOc1ccc(NS(=O)(=O)c2cc3c(cc2C)N(C)CCO3)cc1
-3	Cc1ccc(NC2CCCN(C(=O)Cc3nonc3C)C2)cc1C (configuration not stated)
-58	COc1ccc(C)cc1NC(=O)CSc1nc2ccccc2nc1N1CC(C)OC(C)C1 (configuration not stated)

More entries.
OX1R antag	structure
-9	CCOC(=O)Cc1csc(NC(=O)CSc2nnc(C)n2C)n1
-14	N#Cc1ccccc1NC(=O)COC(=O)c1ccc(F)cc1F
-22	O=C(/C=C/c1ccc(Cl)cc1)NC1CC2CCC1C2 (configuration not stated)
-20	CCc1sc(C(=O)Nc2ccsc2C(=O)OC)cc1Br
-18	COC(=O)C1=C(C)N(Cc2ccc(OC)c(OC)c2)C(=O)C1
-19	CCc1ccc(-c2csc(NC(=O)C3CC(=O)N(c4ccc5c(c4)OCCO5)C3)n2)cc1 (configuration not stated)
4	Cc1cc(-c2ccc(S(=O)(=O)NCc3ccc(F)cc3)cc2)on1
-3	Cc1ccc(S(=O)(=O)N2CCOCC2)cc1C(=O)OCC(=O)NC1CCS(=O)(=O)C1 (configuration not stated)

(list continues)
OX1R antag	structure
-4	O=C(NCCc1ccc2c(c1)OCCO2)c1cc(F)cc(F)c1
-26	Cc1ccc(C)c(N2CCN(CCN3CCCCC3)CC2)c1
-23	CCCCOC(=O)C(C#N)c1nc2ccccc2nc1N1CCOCC1 (configuration not stated)
-5	O=C(CCSCCc1ccncc1)NCCCN1CCOCC1
-2	Cn1c(=O)n(C)c2cc(S(=O)(=O)Nc3ccccc3)ccc21
-9	Cc1ccc(C2CC(c3cccc(NS(C)(=O)=O)c3)=NN2S(C)(=O)=O)cc1 (configuration not stated)
8	COc1ccc(S(=O)(=O)Nc2nc3c(s2)C(=O)CC(C)(C)C3)cc1
-12	COc1cccc(NC(=O)Cn2nnc(C(=O)NCc3ccc4c(c3)OCO4)c2N)c1

Following part:
OX1R antag	structure
-12	COc1ccc(CN2CCN(C(=O)Cn3ncn4cccc4c3=O)CC2)c(OC)c1OC
-18	Cc1ccc2cc(C#N)c(NCCNC(=O)C3CC3)nc2c1C
-7	CCOc1ccc(Nc2nc(N3CCCC3)nc(N3CCN(c4ccc(OC)cc4)CC3)n2)cc1
-13	Cc1ccc(S(=O)(=O)Nc2ccc3c(c2)nc(CCN2CCOCC2)n3C)cc1
-17	CCC(=O)Nc1cc(C(F)(F)F)ccc1N1CCOCC1
-13	CCS(=O)(=O)N1CCN(c2cnn(-c3ccccc3)c(=O)c2Cl)CC1
-1	Cc1cc(C)n2cc(CSCC(=O)O)nc2n1
-28	COc1ccc(-c2nc(-c3cccc(C(F)(F)F)c3)no2)cc1OC
-12	O=C(NCCN1CCCCC1)Nc1ccc(Br)cc1
1	CCN(C(=O)CSc1nncn1-c1ccccc1)C1CCS(=O)(=O)C1 (configuration not stated)

These rows are one share of the data, and most or all hits are left out here.
